Assay outcomes from PubChem.
PK Bst – alters activity of Bacillus stearothermophilus pyruvate kinase; partly purified Bacillus stearothermophilus pyruvate kinase, luminescence ATP production; ribose 5-phosphate activator present at AC10; Potency, µM; 51,000 compounds, 1.2% hits; AID 361; in the data active means potency below about 11 µM; inconclusive means mostly about 12 µM to 25 µM; inactive means weaker than that;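 the screen sought inhibitors and activators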;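 further: potency means the concentration at half of the fitted maximal effect; scaled between full activation by ribose 5 phosphate and full inhibition by luteolin; about four in five hits inhibit and the cells do not say which; series up to 57 µM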
YjeE inh – YjeE (TsaE) inhibition, E. coli; P0AF67; purified YjeE, fluorescence polarisation of a bound ADP probe; Potency, µM; 71,000 compounds, 0.05% hits; AID 605; active = well fitted falling curve; inconclusive = weaker or top-dose-only fall, or a rising curve; inactive = flat or poorly fitted curve;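 further: top concentration of the series not given in the record; excess ADP was the control for the full effect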
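Fluorescence polarization of a BODIPY Texas Red–ADP probe (2 uM) bound to purified YjeE (10 uM) was read after 15 min room-temperature incubation with compounds. Loss of polarization marks inhibitors; ADP serves as titrated control.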
Starred values were filed as active, the others as inactive; i = inactive; ? = inconclusive; / = no result given. Not all compounds are listed; count on the stated rates, not on these rows.

SMILES | PK Bst | YjeE inh
CCOC(=O)N1CCN(C(=O)N2CCOCC2)CC1 | >57 | i
Cc1ccc(-n2c(SCC(N)=O)nnc2-c2ccccn2)cc1C | >57 | i
CN/C(=C/[N+](=O)[O-])NCCSCc1ccc(CN(C)C)o1 | >25.6 | /
Nc1nc2n(n1)C(c1cccs1)CC(c1ccc(Br)cc1)N2 (centres undefined) | >25.6 | /
CCn1cc(C(=O)N2CC=C(c3ccccc3)CC2)c(=O)c2ccc(C)nc21 | >57 | i
CC1(C)O[C@@H]2C[C@H]3[C@H]4C[C@H](F)C5=CC(=O)C=C[C@@]5(C)[C@@H]4[C@H](O)C[C@]3(C)[C@]2(C(=O)CO)O1 | / | i
c1ccc(-c2cc(CSc3nc4ccccc4[nH]3)on2)cc1 | >57 | i
COc1cccc(-c2nn(C)c3sc(C(=O)N4CCOCC4)cc23)c1 | / | i
COc1ccc(Oc2ncc3nc(-c4ccc(F)cc4)c(=O)n(C)c3n2)cc1 | / | i
CCn1c(CSc2nc(C)cc(C)n2)nnc1SCC(=O)N1CCCc2ccccc21 | >57 | i
COc1ccc(NC(=O)CCNC(=O)Cn2ccc3ccccc3c2=O)c(OC)c1 | >57 | i
CCOC(=O)c1sc(C)c2c(=O)n(CCCN3CCOCC3)cnc12 | >57 | i
COc1ccc(CCn2c(=N)c(C(=O)NCc3ccco3)cc3c(=O)n4ccccc4nc32)cc1OC | >25.6 | /
COc1ccc(N2CCN(Cc3nc4c(c(=O)n(C)c(=O)n4C)n3Cc3cccc(C)c3)CC2)cc1 | / | i
COc1ccc(NC(=O)c2oc3ccccc3c2NC(=O)c2ccc3c(c2)OCO3)cc1 | / | i
CCCN(CC(=O)c1cc(C)n(C)c1C)S(=O)(=O)c1cccc(C(F)(F)F)c1 | >57 | i
CC(C)N(C(=O)CSc1nc2c([nH]1)c(=O)n(C)c(=O)n2C)c1ccccc1 | / | i
O=C1c2ccccc2-c2ccc(NC(=O)[C@H]3CCCC[C@@H]3C(=O)O)cc21 | / | i
Cc1cc(/C=N\O)c(C)n1-c1ccncc1 | >25.6 | /
CCCN(C#N)c1nc(NCC)nc(NC(C)C)n1 | >57 | i
Cn1c2ccccc2c2nnc(SCN3C(=O)c4ccccc4C3=O)nc21 | >57 | i
CC(C)(C)c1ccc(OCC(=O)N2CCN(C=O)CC2)cc1 | / | i
COc1ccccc1N1CCN(S(=O)(=O)c2cccc(F)c2)CC1 | ? | i
CCOC(=O)C1=C(C)NC2=C(C(=O)CCC2)C1c1ccc(N(C)C)cc1 (centres undefined) | / | i
Cc1cccc(NC(=O)c2ccccc2C(=O)O)c1 | / | i
Cc1nn2c(c1-c1ccccc1)NC1=C(C(=O)CCC1)C2c1cccnc1 (centres undefined) | >57 | i
Cc1cc(NC(=O)CCC(=O)N(C2CC2)C2(C(=O)NC3CCCC3)CCC(C)CC2)no1 (centres undefined) | >57 | i
CCOC(=O)N1CCN(C(=O)c2ccc3c(=O)n(CCC4=CCCCC4)c(=O)[nH]c3c2)CC1 | >57 | i
CCOCc1nnc(NC(=O)CSc2ccccc2)s1 | >57 | i
Cc1ccc(CS(=O)(=O)CCC(=O)NCC2CCCO2)cc1 (centres undefined) | >57 | i
O=C(c1ccccc1)N1CCCCC(Sc2nnnn2-c2ccccc2)C1=O (centres undefined) | >57 | i
O=c1cc(-c2ccccc2)nc2nc(-c3ccco3)[nH]n12 | >57 | i
CCOC(=O)CNC(=O)CSc1nc(C)cc(C)c1C#N | >57 | i
CN(C)C(=O)c1ccc(COc2ccccc2Br)o1 | >57 | i
CCCn1c(C)nc2c(NCCCN(C)C)nc(C)nc21 | / | i
CCOC(=O)CNC(=O)Nc1nnc(-c2ccc(OCC)cc2)o1 | / | i
CC1(C)CC(=O)c2cnc(NC(=O)c3ccco3)nc2C1 | >57 | i
CC1(C)Cc2c(sc3ncn4nnnc4c23)CO1 | >11.4 | /
CCC1(C)Cc2ccccc2/C(=C/C(=O)N2CCCCC2)N1 (centres undefined) | >57 | i
CCCCC(=O)Nc1cccc(-c2nc3ncccc3o2)c1 | / | i
Clc1ccc(Br)cc1-c1nc(-c2ccncc2)no1 | >57 | i
Cc1cc(C)n(-c2nncn2NC(=O)c2ccc(Cl)cc2O)n1 | >57 | i
CC(C)CC1(C(=O)NCc2ccccn2)C=CCN1C(=O)c1ccccc1 (centres undefined) | / | i
CS(=O)(=O)N1CCC(C(=O)NCCN2CCN(Cc3ccccc3)CC2)CC1 | >57 | i
O=C(OCc1cccc2ccccc12)c1ccc2c(=O)[nH]c(CN3CCOCC3)nc2c1 | >57 | i
COc1ccc(CC(=O)Nc2ccc3c(c2)CCC3)cc1S(=O)(=O)N1CCOCC1 | >57 | i
Nc1nonc1C(=O)OCC(=O)N1CCCCC1 | >57 | i
Cn1nnc(C(O)CNCc2cccs2)n1 (centres undefined) | >57 | i
CCOc1cc(N2CCOCC2)c(OCC)cc1NC(=O)c1nc2nccc(C)n2n1 | >57 | i
COc1cc2nc(C3CCC3)n(NC(=O)C(OC(C)=O)c3ccccc3)c(=O)c2cc1OC (centres undefined) | >57 | i
CCNc1ncc2nc(C)c(=O)n(C)c2n1 | / | i
Cn1c(SCc2nn[nH]n2)nc2c1c(=O)n(Cc1ccccc1Cl)c(=O)n2C | >57 | i
COC(=O)c1cc(NC(=O)C2CC2)cc(C(=O)OC)c1 | >57 | i
Cc1ccc(CC2CC(=O)N(c3cc(C)on3)C2=O)cc1 (centres undefined) | / | i
CC1(C)Cc2c(sc3c2c2ncnn2c2nnc(SCC(=O)NCc4ccco4)n32)CO1 | >57 | i
c1cc(-c2nnc3sc(C4CCCCC4)nn23)ccn1 | >25.6 | /
N#CC1=C(N)SC(N)=C(C#N)C1c1ccoc1 | >57 | i
N#Cc1cccc(NC(=O)N2CCCC3(CCN(C(=O)c4ccncc4)CC3)C2)c1 | / | i
Cc1cccc(N2C(=O)c3cccc4c(N(C)CCO)ccc(c34)C2=O)c1 | / | i
CCCCOC(=O)C1C2C=CC3(CN(CCc4ccccc4)C(=O)C13)O2 (centres undefined) | / | i
Later entries
SMILES | PK Bst | YjeE inh
COc1ccc(OC)c(NC(=O)CSc2nnc(-c3ccco3)n2-c2ccc(C(=O)O)cc2)c1 | >25.6 | /
Cn1c(C(=O)O)c(CC(=O)NCC2COc3ccccc3O2)c2ccccc21 (centres undefined) | ? | i
Cc1sc2nc3c4ccccc4c(NCc4ccco4)nn3c(=O)c2c1C | 1.96* | i
COc1ccccc1-c1cc(N(C)Cc2ccco2)ncn1 | / | i
CCC/C=C(\CCC)C(NC(=O)c1ccc(-c2ccccc2)cc1)c1ccc(C(=O)OC)cc1 (centres undefined) | / | i
O=C(Nc1ccccc1Cl)c1cnccn1 | >57 | i
CCOc1ccc(N(Cc2cc3ccc(C)cc3[nH]c2=O)C(=O)COC)cc1 | >57 | i
COc1ccc(S(=O)(=O)N2Cc3ccccc3CC2C(=O)N2CCOCC2)cc1 (centres undefined) | >57 | i
CC#CCOC(=O)C1=CCCN(C)C1 | / | i
N#Cc1c(SCC(N)=O)nsc1SCc1ccc(Cl)cc1 | >25.6 | /
COC(=O)c1ccccc1N1C(=O)[C@@H]2C(c3ccc(F)cc3)=NO[C@@H]2C1=O | >57 | i
CC1CCCN(Cc2nc3c(c(=O)n(C)c(=O)n3C)n2CCCc2ccccc2)C1 (centres undefined) | >57 | i
CN(C)CCCOC(=O)c1ccc(Br)cc1 | / | i
COc1nc(OC)nc(N2CCC(C(=O)Nc3cccc4ccccc34)CC2)n1 | >57 | i
O=C(CSc1nnc(CNC(=O)c2c(F)cccc2Cl)o1)Nc1ccccc1 | >57 | i
COc1ccc(N(CC(=O)N2CCc3ccccc3C2)S(=O)(=O)c2c(C)[nH]c(=O)[nH]c2=O)cc1 | / | i
Cc1cc(C)c(OCC(=O)Nc2ccc3c(c2)OCO3)cc1C | >57 | i
CSCCOC(=O)c1[nH]c2c(c1C)C(=O)CC(c1ccco1)C2 (centres undefined) | / | i
c1ccc(B2OC[C@@H]3OB(c4ccccc4)O[C@H]([C@@H]4COB(c5ccccc5)O4)[C@@H]3O2)cc1 | / | i
Cc1noc(C)c1S(=O)(=O)N1CCCC(C(=O)NCc2ccccn2)C1 (centres undefined) | >57 | i
O=C(CN(C(=O)CNS(=O)(=O)c1ccccc1)C1CCCC1)NCC1CCCO1 (centres undefined) | >57 | i
c1csc(CNc2nc3ccccc3n2CCN2CCOCC2)c1 | >57 | i
O=C1c2[nH]nc(-c3ccccc3O)c2C(c2ccc(F)cc2)N1CC1CCCO1 (centres undefined) | >57 | i
OCCCNCc1cccc2ccccc12 | >57 | i
Cc1cccc(-c2nc(CS(=O)CC(=O)NCC3CCCO3)c(C)o2)c1 (centres undefined) | / | i
C(=N\n1cnnc1)/c1ccc2c(c1)OCCO2 | >57 | i
CC(=O)c1cccc(NC(=O)CCS(=O)(=O)c2cccc3nonc23)c1 | >57 | i
OCCOCCNc1ncnc2nc[nH]c12 | / | i
CN(Cc1ccncc1)C1CC(=O)N(c2ccc(Cl)cc2)C1=O (centres undefined) | >57 | i
O=C1c2ccccc2S(=O)(=O)N1Cc1cc(=O)n2ccsc2n1 | >57 | i
COc1ccc(Br)cc1-c1noc(-c2ccccc2F)n1 | >57 | i
COc1ccc(CN(CC(=O)NCC2CCCO2)C(=O)CCC(=O)Nc2cc(C)on2)cc1 (centres undefined) | >57 | i
CCCCc1ccc(S(=O)(=O)Nc2cc(C)on2)cc1 | >57 | i
COc1ccc(S(=O)(=O)N(C)CC(=O)Nc2ccc3c(c2)OCO3)cc1OC | >57 | i
O=C(NCCN1CCCCC1)/C(=N\O)c1ccccc1 | >25.6 | /
c1ccc(Nc2cc(-c3ccoc3)ncn2)cc1 | / | i
CCCCCCc1ccc(OCC(=O)O)cc1OCC(=O)O | >57 | i
O=C(CSc1nnc(-c2cccnc2)n1Cc1ccco1)c1ccc(Cl)cc1 | >57 | i
COc1ccc(CCNC(=O)c2nn(C)cc2Cl)cc1 | >57 | i
Cc1nn(Cc2ccccc2)c(N)c1C#N | / | i
Cc1cnc(C(=O)Nc2ccc(N3CCOCC3)cc2)cn1 | >57 | i
CCc1ccc(N2CC34C=CC(O3)C(C(=O)OC)C4C2=O)cc1 (centres undefined) | / | i
O=C(c1ccco1)N1CCN(C(=O)C(Sc2ccccc2)c2ccccc2)CC1 (centres undefined) | >57 | i
Cn1c(Cn2cnc3ccccc32)nnc1SCc1ccccc1 | >57 | i
COc1ccc([C@@H]2[C@H]3CN(C(C)=O)CC=C3C(C#N)=C(N)C2(C#N)C#N)c2ccccc12 | >57 | ?
Cc1csc(NC(=O)CSc2nnc(Cc3cccn3C)n2CCc2ccccc2)n1 | / | i
COc1ccc(C)cc1S(=O)(=O)N(C)CC(=O)Nc1ccccc1 | >57 | i
O=C(c1cc2ccccc2oc1=O)N1CCN(c2ccc(N3CCOCC3)nn2)CC1 | / | i
COc1ccc(Oc2ncc3ncc(=O)n(C[C@H]4CCCO4)c3n2)cc1 | / | i
O=c1c2ccccc2sn1-c1ccc(S(=O)(=O)N2CCCCC2)cc1 | >57 | i
O=C(NC1CCCc2ccccc21)C1CCC(CNc2c(N3CCOCC3)c(=O)c2=O)CC1 (centres undefined) | / | i
CCCOC(=O)c1ccc(OCC(O)CN2CCN(C(=O)c3ccccc3)CC2)cc1 (centres undefined) | >57 | i
Nc1ccc(N=Nc2ccccc2)c(N)c1 | / | i
O=C(O)CSCc1nc2ccccc2s1 | >57 | i
CC(C)c1ccc(S(=O)(=O)c2n[nH]n3c2nc(=O)c2ccccc23)cc1 | >57 | i
CC(=O)N1CCN(c2ccc(Nc3nc(C)nc4c3oc3ccccc34)cc2)CC1 | / | i
O=C(OCC(=O)N1CCN(C(=O)c2ccco2)CC1)c1sc2cc(F)ccc2c1Cl | / | i
COc1cc(NS(=O)(=O)c2ccc(F)cc2)c(C(=O)O)cc1OC | >57 | i
O=c1cnc2cnc(N3CCNCC3)nc2n1CCc1ccccc1 | / | i
O=C1N=C(N2CCCCC2)SC1=C1CCCC1 | / | i
CCCOC(=O)CSc1nnc(-c2cc(OC)c(OC)c(OC)c2)o1 | / | i
COC(=O)c1ccc(OCC2c3cc(OC)c(OC)cc3CCN2C(=O)c2ccco2)cc1 (centres undefined) | >57 | i
